SmPrx2 inh – Schistosoma Mansoni Peroxiredoxins (Prx2). Schistosoma mansoni peroxiredoxin 2 (Prx2). S. mansoni Prx2 activity coupled to TGR/GSH (TGR is thioredoxin glutathione reductase), NADPH fluorescence loss, qHTS; some inactives read as strong as hits. Potency, µM. 65,000 tested, 0.07% active. AID 448, 2006; active means full or partial inhibition curve with a strong effect at the top dose; inconclusive means weaker partial or single-point curve; inactive means no accepted curve; note: series up to 57 µM; many of its hits are not listed in these tables
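Prx2 inhibition was measured as reduced NADPH consumption when electrons flowed from NADPH through TGR and glutathione to Prx2 and H2O2. Plates were read kinetically over 8 min; enzyme reagents were held at 4 deg C during dispensing.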
LT uptake inh – qHTS Assay for Anthrax Lethal Toxin Internalization | Cells, anthrax lethal toxin internalization, FRET ratio (460/530) | Potency, µM (top dose mostly 40 µM), without a hit: top-dose activity change, negative = inhibition, hits mostly inhibitors | 70,000 tested, 0.67% active; active = well fitted falling ratio curve with the 530 nm signal flat; inconclusive = other ratio curves, or a change in one channel alone; inactive = flat curves in the ratio and both channels; the % refers to the ratio; note: % is set by controls: 0 for no effect and ±100 for the full control effect; nearly all actives have a fitted effect of over 50% in size; tested in ME-180 cells; beta-lactamase reporter
An asterisk follows results filed as active; ? = inconclusive; / = not tested or not shown; & = joins results of further samples; [ ] = dose if it differs, or a comment. Potency is the fitted concentration of half-maximal effect. These rows are one share of the data, so the mix of outcomes need not match the whole.

Results follow in this order: SmPrx2 inh | LT uptake inh
- CCC1(C)Cc2c(sc3c2c2ncnn2c2nnc(SCC(=O)NCc4ccco4)n32)CO1 (configuration not stated)
→ >57 | ?
- CCOC(=O)c1nnn(CC(=O)Nc2cc(Cl)ccc2C)c1C(=O)OCC
→ >57 | 7.94µM*
- O=S(=O)(Cc1ccccc1)N1CCn2c(nc3ccccc32)C1
→ >57 | 3.3%
- CCOC(=O)N1CCN(C(=O)NC23CC4CC(CC(C4)C2)C3)CC1
→ / | -0.2%
- CC(C)(C)n1ncc2c(=O)n(CC(=O)OCc3ccccc3)cnc21
→ >57 | 4.4%
- CCC(=O)Nc1ccc(NC(=O)c2ccco2)c(OC)c1
→ >57 | /
- COCCCn1c(-c2ccccc2Cl)n[nH]c1=S
→ >57 | 0.1%
- Cn1cccc1C(=O)N1CCC2(CCN(Cc3nccs3)CC2)CC1
→ >57 | ?
- O=C(CCN1C(=O)c2ccccc2C1=O)N1CCN(c2ccccn2)CC1
→ >57 | /
- O=C(OCCN(C1=NS(=O)(=O)c2ccccc21)c1ccc(Cl)cc1)c1ccco1
→ ? | -12.0%
- Cc1nc(NC2=NCN(Cc3cccnc3)CN2)nc2ccccc12
→ >57 | -12.4%
- O=C(c1ccco1)N1CCCC(c2nc(-c3ccc(S(=O)(=O)NCc4ccccc4)cc3)no2)C1 (configuration not stated)
→ >57 | 12.6µM*
- CCCCCn1c(CN2CCN(Cc3ccccc3)CC2)nc2c1c(=O)[nH]c(=O)n2C
→ >57 | 10.8%
- N#Cc1ccc(-c2ccco2)nc1SCc1ccccc1
→ >57 | -17.5%
- COc1ccc(OC)c(C2CC(=O)N3CN(c4ccc(C)c(Cl)c4)CSC3=C2C#N)c1 (configuration not stated)
→ >57 | -15.1%
- COC(=O)c1cn(C)c2ccc(S(=O)(=O)N3CC(C)CC(C)C3)cc2c1=O (configuration not stated)
→ >57 | 7.9%
- Cc1ccccc1-n1c(=O)cc(N2CCCCCC2)[nH]c1=O
→ >57 | 4.9%
- Cc1noc(COc2ccccc2OCC(N)=O)c1Cl
→ >57 | -17.0%
- CC1(c2ccccc2)NC(=O)N(CC(=O)N2CCOCC2)C1=O (configuration not stated)
→ >57 | 14.4%
- CC12CN(C(=O)c3ccco3)CC(c3ccccc3)(CN(C(=O)c3ccco3)C1)C2=O
→ >57 | 1.3%
- CCOC(=O)c1cc2occc2n1CCCN1C(=O)c2ccccc2C1=O
→ >57 | ?
- CCOC(=O)N1CCN(S(=O)(=O)c2ccc(C(=O)Nc3ccc(F)cc3F)cc2)CC1
→ >57 | 3.4%
- COCCn1c(C)cc(C(=O)COC(=O)c2ccc3ncsc3c2)c1C
→ >57 | -4.7%
- O=C(c1ccc(C(=O)N2CCOCC2)nc1)N1CCOCC1
→ >57 | 3.1%
- Cn1c(Cl)cnc1C(O)c1ccccc1 (configuration not stated)
→ >57 | -6.6%
- CC1Cc2ccccc2N1C(=O)CN1C(=O)CN(C)C(=O)c2ccccc21 (configuration not stated)
→ >57 | -0.2%
- CCN1C(=O)C(O)(CC(=O)c2cc(C)ccc2C)c2ccccc21 (configuration not stated)
→ >57 | -15.5%
- O=C(c1ccncc1)N(Cc1ccco1)Cc1cc2ccccc2[nH]c1=O
→ >57 | ?
- COc1ccc(NS(=O)(=O)c2cc(-c3nnnn3C)ccc2OC)cc1
→ >57 | -2.2%
- Cc1ccc(NC(=O)Cn2cccc2)cc1C
→ >57 | 5.7%
- O=C(CSc1nnc2ccccn12)NC(=O)NC1CCCCC1
→ >57 | 8.0%
- Nc1ncnc2c1nc(Br)n2[C@@H]1O[C@H]2COP(=O)(O)O[C@@H]2[C@H]1O
→ >57 | 2.6%
- C=CCn1c2ccccc2c2nnc(SCCCn3c(=O)[nH]c4ccccc43)nc21
→ / | 6.31µM*
- CC(C)(C)n1ncc2c(=O)n(CC(=O)NCc3ccccc3)cnc21
→ >57 | -20.8%
- O=C(Nc1ccc2c(c1)OCO2)c1ccc(CN2CCOCC2)cc1
→ / | ?
- O=C(CN1CCOCCOCCN(CC(=O)Nc2ccccc2)CCOCC1)Nc1ccccc1
→ >57 | 7.4%
- O=C(NCCc1ccccc1)C1CCN(c2nc3ccccc3o2)CC1
→ >57 | 2.7%
- CCC(Sc1nc(C)cc(=O)[nH]1)C(=O)Nc1ccc(Cl)cn1 (configuration not stated)
→ >57 | 9.9%
- COC(=O)C(C)NS(=O)(=O)c1ccc(NC(C)=O)cc1 (configuration not stated)
→ >57 | 2.5%
- Cc1nc(NC(=O)c2ccccc2)sc1-c1csc(N)n1
→ >57 | -13.9%
- Nc1ncnc2c1ncn2[C@H]1O[C@@H](C(=O)OCCO)[C@@H](O)[C@H]1O
→ >57 | -4.0%[8 µM]
- COc1ccccc1CNc1ccnc(-c2ccoc2)n1
→ >57 | -8.8%
- Cc1nc2c3c4c(sc3n3c(SCC(=O)NCc5ccco5)nnc3n2n1)COC(C)(C)C4
→ >57 | ?
- O=C(COc1ccccc1)Nc1nc2ccccc2[nH]1
→ >57 | 3.3%
- COC(=O)c1coc(-c2ccc(C)cc2)c1C(=O)OC
→ >57 | -29.6%
- c1ccc(C(OCCN2CCNCC2)c2ccccc2)cc1
→ >57 | -0.9%
- CC(C)(C)C1CCC(=O)C(C2(O)C(=O)Nc3ccccc32)C1 (configuration not stated)
→ >57 | ?
- CN(Cc1ccco1)c1ncnc2ccc(-c3cccc(C#N)c3)cc12
→ >57 | -20.7%
- CCOC(=O)C1=C(C)NC(=O)NC1c1ccc(OC(=O)c2ccco2)c(OC)c1 (configuration not stated)
→ >57 | 5.1%
- CC(=O)c1cccc(NC(=O)c2ccc(NS(=O)(=O)c3c(C)noc3C)cc2)c1
→ >57 | -1.4%

(more compounds)
Results follow in this order: SmPrx2 inh | LT uptake inh
- CCOC(=O)OCC1OC(c2ccccc2)C=CC1Oc1ccc(F)cc1C (configuration not stated)
→ / | -20.3%[8 µM]
- CCOC(=O)CCN1C(=O)[C@H]2[C@H]3[C@H](O)[C@H](O)C/C(=N/O[C@@H]4O[C@@H](COC(C)=O)[C@@H](OC(C)=O)[C@@H](OC(C)=O)[C@H]4OC(C)=O)[C@H]3CC[C@@H]2C1=O
→ / | -2.6%[8 µM]
- CCOC(=O)C(C)n1cnc2c(nnn2Cc2ccc(Cl)cc2)c1=O (configuration not stated)
→ >57 | -10.5%
- COc1ccc(CCNS(=O)(=O)c2ccc3c(c2)OCCO3)cc1
→ >57 | 7.0%
- Cc1cc(C)n(C(=O)C23CC4CC(CC(C4)C2)C3)n1
→ >57 | /
- CCOc1ccc(C2CC(c3cccc(C)c3)n3nc(N)nc3N2)cc1 (configuration not stated)
→ >57 | 6.9%
- CC(=O)N(C(C)=O)c1c(N2CCOCC2)c2ccccc2oc1=O
→ >57 | -13.3%
- Cc1ccc(S(=O)(=O)Nc2nc(C)cc(NCCN)n2)cc1
→ / | -10.1%
- CCOC(=O)C1(c2ccccc2)CCN(Cc2cccc(C(=O)O)c2)CC1
→ >57 | -9.0%
- O=C(CSc1ncnc2c1oc1ccccc12)N1CCN(c2ccccc2)CC1
→ >57 | -2.4%
- CC(=O)OC1CC2(C)C(=O)CCC2C2CCc3cc(O)ccc3C12 (configuration not stated)
→ >57 | -4.4%
- CCCCOc1ccc(C(=O)NCc2ccccn2)cc1
→ >57 | -11.1%
- COc1ccc(OC)c(C2CC(=O)N3CN(c4ccccc4)CSC3=C2C#N)c1 (configuration not stated)
→ >57 | -15.0%
- COc1ccc(NC(=O)c2ccc(CN3CCN(c4ccccc4)CC3)cc2)cc1OC
→ / | -8.3%
- CCN(CC)CCCNC(=O)c1cn(CCOC)c(=O)c2c1c1ccccc1n2C
→ >57 | -5.7%
- COC(=O)C1=C(C)N(C)C(C)=C(C(=O)OC)C1c1ccsc1
→ / | -12.2%
- O=c1c2c3nc4ccccc4nc3n(-c3cccc(F)c3)c2ncn1Cc1ccc2c(c1)OCO2
→ >57 | ?
- CCN(CCCNC(=O)CN(C)S(=O)(=O)c1cccc2nsnc12)c1cccc(C)c1
→ >57 | -0.2%
- CCN(C(=O)c1cn(CC)c(=O)c2cc(OC)c(OC)cc12)c1ccccc1C
→ >57 | 2.5%
- O=C(Nc1nccs1)c1cccc(NC(=O)C2CC2)c1
→ >57 | -1.4%
- N#C/C(=C\c1ccc(O)c(O)c1)C(=O)NCc1ccccc1
→ >11.4&>57 | ?
- COc1ccc(-c2nc3cnc(N4CCNCC4)nc3n(Cc3ccc(F)cc3)c2=O)cc1
→ >57 | ?
- C/C(N)=C(/C#N)C(=O)CSc1nnc(-c2ccc(OC(F)F)cc2)o1
→ >57 | -8.7%
- CCNc1ccc(C(=O)OCC)cc1NC(=O)c1cc(S(=O)(=O)N2CCOCC2)ccc1C
→ / | -0.3%
- COc1ccccc1N(CC(=O)Nc1ccc2c(c1)OCCO2)S(C)(=O)=O
→ >57 | -2.3%
- CC(=O)c1c(C)[nH]c(C(=O)OCC(=O)Nc2cc(C(F)(F)F)ccc2N2CCOCC2)c1C
→ >57 | -19.0%
- COc1cc(-c2nnc(-c3cccs3)o2)cc(OC)c1OC
→ >57 | 2.6%
- Cc1ccc(N)cc1C
→ / | -4.2%
- c1cc(CNc2ccc3c(c2)OCO3)ccn1
→ >57 | -14.7%
- CC(=O)c1oc2ccccc2c1NC(=O)COC(=O)c1ccc(-n2nc(C)cc2C)cc1
→ >57 | -12.8%
- CCOc1ccc(S(=O)(=O)Nc2ccccc2C(=O)NCC2CCCO2)cc1 (configuration not stated)
→ >57 | 8.1%
- Cc1noc(C)c1S(=O)(=O)N(CC(=O)N1CCCC1)c1ccc(C(C)C)cc1
→ >57 | -8.4%
- Cc1cc(NC(=O)COC(=O)COc2ccc(C(=O)c3ccccc3)cc2)no1
→ >57 | -4.2%
- O=C(CN1CCN(c2ccc(F)cc2)CC1)N1CCC(Cc2ccccc2)CC1
→ >57 | -10.6%
- CCOC(=O)C1CCCN(c2nc3ccccc3nc2C(C#N)C(=O)NCc2ccccc2)C1 (configuration not stated)
→ >57 | ?
- CCCCn1c(SCC(=O)c2ccc(OC)cc2OC)nc2cc(S(N)(=O)=O)ccc21
→ >57 | /
- CCNC(=O)c1sc(-c2ccccc2)nc1C
→ >57 | 6.2%
- CCC1CCCCN1CCCNC(=O)Cn1nc(-c2ccc(C)cc2)ccc1=O (configuration not stated)
→ >57 | -9.8%
- O=C(c1cnccn1)N1CCC2(CC1)CCN(c1ccncc1)CC2
→ >57 | 5.4%
- CC(=O)NCCNc1ncncc1-c1ccccc1C(F)(F)F
→ >57 | 1.5%

As entered above.
Result for `O=C(c1cnccn1)N1CCC2(CC1)CCN(c1ccncc1)CC2` in LT uptake inh: 5.4%
Result for `Cc1noc(C)c1S(=O)(=O)N(CC(=O)N1CCCC1)c1ccc(C(C)C)cc1` in SmPrx2 inh: >57

More structures follow:
Results follow in this order: SmPrx2 inh | LT uptake inh
- CCCCC(c1nnnn1CS(=O)(=O)c1ccc(C)cc1)N1CCN(c2ccccc2)CC1 (configuration not stated)
→ >57 | ?
- O=C(c1nc2n(n1)C(c1ccc(Cl)cc1)C=C(c1ccccc1)N2)N1CCOCC1 (configuration not stated)
→ >57 | ?
- COc1cccc2cc(C(=O)NC3CC(C)(C)NC(C)(C)C3)c(=O)oc12
→ >57 | /
- COc1ccc(C(NC(=O)C(C)(C)C)NC(=O)C(C)(C)C)cc1
→ >57 | 7.7%
- CCN1CCN(C(=O)Nc2cccc(C(F)(F)F)c2)CC1
→ >57 | 12.2%
- O=C1C[C@@H](O)[C@@H](O)[C@H]2[C@@H]3C(=O)N(Cc4ccc5c(c4)OCO5)C(=O)[C@@H]3CC[C@H]12
→ / | -9.9%&3.4%[8 µM]
- O=C(Nc1ccc2oc(=O)ccc2c1)c1cccnc1
→ >57 | -4.8%
- CCOc1c(Br)cc(C2NS(=O)(=O)N=C3CCCCCN32)cc1OC (configuration not stated)
→ >57 | -12.8%
- COC(=O)CCN(C(=O)c1ccc2c(c1)OCO2)c1ccccn1
→ >57 | 7.9%
- CCn1cnc2cc(NCc3nc4ccccc4n3C)ccc21
→ >57 | -11.5%
- Cc1onc(-c2ccccc2Cl)c1C(=O)Nc1ccc(OCC(=O)N2CCOCC2)cc1
→ >57 | -14.7%
- CCOC(=O)c1oc2ccccc2c1NC(=O)C1CCCCC1
→ >57 | 0.0%
- COc1ccc2oc(C)c(NC(C)=O)c2c1
→ >57 | -6.1%
- COc1ccc(C(=O)c2oc3ccc(Br)cc3c2NC(C)=O)cc1
→ >57 | -17.8%
- CC1CCc2c(sc3ncnc(SCC(=O)N4CCN(C(=O)c5ccco5)CC4)c23)C1 (configuration not stated)
→ >57 | -2.7%
- O=C(CN1CCC(n2nnc3cc(F)ccc32)CC1)NC1CCCCC1
→ >57 | -6.5%
- COc1ccc(-c2nc3cnc(OC)nc3n(CCc3ccccc3)c2=O)cc1
→ >57 | ?
- O=C(OCn1nnc2ccccc2c1=O)c1ccc2ccccc2n1
→ >57 | -5.8%
- COCCNC(=O)c1ccccc1NC(=O)COc1ccccc1
→ >57 | 0.0%
- Cc1ccc(C)c(N2CCN(C(=O)C3CCN(S(=O)(=O)c4c(C)noc4C)CC3)CC2)c1
→ >57 | -11.4%
- CN1/C(=C\C(=O)Nc2cccnc2)c2ccccc2CC1(C)C
→ >57 | ?
- OC1CCN(Cc2cccc(Oc3ccccc3)c2)CC1
→ / | -23.7%
- CCOC(=O)N1CCC(NC(=O)C2CCCN(C(=O)c3cc4sccc4n3C)C2)CC1 (configuration not stated)
→ >57 | -13.1%
